Insulin prom inh: TRM-6 insulin promoter activity inhibition; TRM-6 cells (human fetal islet line), insulin promoter-eGFP reporter, imaging; reporter expression induced with tamoxifen; inhibition, % at 2 µM; actives 0.9% (n = 130,000); AID 1273;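 active means inhibition above the mean plus 3 SD, with well images judged a real hit on visual review, cut at about 60% in these data, passing the limit was not always enough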
RGS16-Gao: RGS16-Galphao interaction regulator (human). bead-based flow cytometry RGS16-Galphao binding, fluorescence; actives lie on both sides. binding response (% of control), % at 10 µM. actives 0.38% (n = 220,000). AID 1441;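 active means below 25% or above 175%, edge rows of some plates excepted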;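 further: Galphao activated by GDP with aluminum fluoride before binding; 100% = wells without compound and 0% = beads without RGS; some results beyond the cut were filed as inactive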
Target sequence (O15492 whole entry, looked up): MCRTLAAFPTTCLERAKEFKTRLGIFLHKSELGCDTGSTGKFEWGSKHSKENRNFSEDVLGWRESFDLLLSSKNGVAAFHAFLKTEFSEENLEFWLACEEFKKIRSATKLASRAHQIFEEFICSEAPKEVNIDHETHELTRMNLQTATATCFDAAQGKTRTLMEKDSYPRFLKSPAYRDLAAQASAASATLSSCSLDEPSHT
Target sequence (P09471 whole entry, looked up): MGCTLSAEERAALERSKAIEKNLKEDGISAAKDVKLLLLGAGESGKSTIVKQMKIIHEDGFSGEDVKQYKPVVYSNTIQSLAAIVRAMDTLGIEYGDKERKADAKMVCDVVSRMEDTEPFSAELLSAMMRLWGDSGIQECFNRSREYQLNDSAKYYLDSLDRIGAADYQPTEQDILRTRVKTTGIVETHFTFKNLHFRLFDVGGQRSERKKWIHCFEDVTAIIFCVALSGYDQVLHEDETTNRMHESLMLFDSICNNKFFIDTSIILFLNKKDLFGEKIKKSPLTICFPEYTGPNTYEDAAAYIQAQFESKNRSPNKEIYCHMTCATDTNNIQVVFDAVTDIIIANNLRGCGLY
HSV replic up: HSV replication enhancement. AID 1956. maximum fold increase. HSV replication augmentation in cells, fold increase. actives 0.005% (n = 220,000);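 active means peak rise of 1.5-fold or more in the series; tested in PC3 cells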;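 further: first round at 10 µM; read as green reporter fluorescence; hits show the peak of a series up to 25 µM; 1 = signal of infected wells without compound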
PKD1 inh: blocks activity of human protein kinase D1; Q15139; PKD1 kinase fluorescence polarization assay; inhibition, %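 (about 10 µM by stock and volumes)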; actives 0.056% (n = 200,000); AID 797;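 active means inhibition of 50% or more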;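 further: controls were vehicle for no effect and a reference inhibitor for full effect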
GALR2 ag: activates the human galanin receptor 2; actives 0.48% (n = 140,000); GALR2-expressing cells, agonist activation read-out; activation, %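 (tested at 5 µM)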; O43603;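 active means above mean plus 3 SD of all compounds, about 5% in these data, not always enough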;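 further: 0% = vehicle buffer wells and 100% = reference agonist at full effect; tested in CHO reporter cells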
Target sequence (O43603 whole entry, looked up): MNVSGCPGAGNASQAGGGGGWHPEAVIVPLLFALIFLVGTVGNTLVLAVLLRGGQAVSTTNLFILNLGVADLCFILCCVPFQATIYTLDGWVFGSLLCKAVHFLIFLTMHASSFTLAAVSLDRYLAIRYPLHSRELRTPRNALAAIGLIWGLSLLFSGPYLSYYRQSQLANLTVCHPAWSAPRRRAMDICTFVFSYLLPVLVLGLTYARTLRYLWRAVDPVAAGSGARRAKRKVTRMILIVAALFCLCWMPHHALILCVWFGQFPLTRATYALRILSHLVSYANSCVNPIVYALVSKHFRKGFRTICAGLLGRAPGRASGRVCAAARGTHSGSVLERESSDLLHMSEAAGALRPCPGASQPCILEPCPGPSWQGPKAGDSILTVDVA
Insulin prom inh cell count: further read-out of Insulin prom inh, marked with its call; normalized cell count, %; measured here: cell count, toxicity; reference of the scale not given here;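 cells exposed to compound for 48 h; stained nuclei by imaging scaled within each plate; lower means fewer cells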
HSV replic up primary fold: recorded beside HSV replic up, whose call it bears; fold increase; compound at 10 µM; measured here: primary screen fold increase 10 uM; tested in PC3 cells;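 GFP signal in the first replicate; 1 = infected wells without compound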
* marks the source's active call; other numbers are inactive results; i = inactive; · = not tested or not shown.

SMILES	Insulin prom inh	Insulin prom inh cell count	RGS16-Gao	HSV replic up	HSV replic up primary fold	PKD1 inh	GALR2 ag
CCOc1cc(CNCCc2ccc(S(N)(=O)=O)cc2)ccc1OCC(=O)NC1CCCCC1	-29	122	105	i	0.9	0	-2.4
O=C(COC(=O)/C(=C/c1cccs1)c1cccs1)NCc1ccccc1Cl	21	112	70	i	0.99	-3	-2.2
O=C(c1cc(N2C(=O)C3C4CCC(C4)C3C2=O)ccc1Cl)N1CCN(c2ccccc2F)CC1 (stereo not given)	-27	140	110	i	0.98	-7	-0.8
Cc1cccc(Nc2n[nH]c(C)c2[N+](=O)[O-])c1	14	101	99	i	0.96	-10	-0.1
CCn1c(SCc2ccccc2)nnc1-c1cccs1	-94	136	101	i	0.8	-12	-2.5
CN(C)/C=C(\C#N)c1nc2ccccc2[nH]1	57	216	140	i	0.86	2	-3.5
COc1ccc(CCNC(=O)C2CCN(S(=O)(=O)c3cccs3)CC2)cc1OC	-5	75	105	i	1	-4	·
O=C(c1ccc(-c2nnc(Nc3ccccc3)c3ccccc23)cc1)N1C[C@H]2C[C@H](C1)c1cccc(=O)n1C2	18	121	95	i	0.8	0	-0.6
CCOC(=O)c1[nH]c2ccccc2c1NC(=O)c1ccc(Br)o1	-43	95	105	i	0.93	-3	-1.7
CC(C)(C)c1oc(C(=O)O)cc1CN1CCOCC1	·	·	110	i	0.96	·	·
Cc1ccc(OCC(=O)N2CCN(c3nnc(-c4ccccc4)c4ccccc34)CC2)cc1	10	43	101	i	0.98	8	-1.9
CCOc1ccc(NS(=O)(=O)c2ccc3[nH]cc(C(=O)N(CC)CC)c(=O)c3c2)cc1	22	148	108	·	·	12	-5.0
COc1ccc(OC)c(-n2nnnc2SCC(=O)O)c1	6	111	107	i	1	-3	-2.9
CC1Cc2ccccc2N1C(=O)CSc1nncn1C (stereo not given)	·	·	99	i	0.98	3	·
O=C(NCc1ccco1)c1csc(Nc2ccccc2Cl)n1	-4	113	98	i	0.75	-11	-2.3
Cc1ccc(NC(=O)c2ccc3c(c2)C(=O)N(Cc2cccnc2)C3=O)c(C)c1	·	·	100	i	1.1	-5	·
O=C(COC(=O)c1ccccc1O)Nc1ccc(S(=O)(=O)N2CCCCC2)cc1	·	·	104	i	0.92	-12	·
Cc1ccc(C)c(NC(=O)C(Sc2nncn2C)c2ccccc2)c1 (stereo not given)	·	·	101	i	0.92	-6	-0.8
Cc1ccc(N)c(C(=O)CCCCC(=O)O)c1	-13	107	110	i	0.85	-8	-2.1
COc1cc(/C=C/C(=O)N2c3ccccc3Sc3ccc(C(F)(F)F)cc32)cc(OC)c1OC	·	·	97	i	0.82	7	-2.6
Cc1ccc(/C=C/C(=O)Nc2ncc(C)s2)o1	·	·	83	i	1.3	9	-1.2
COCCNC(=O)c1ccccc1NC(=O)c1ccccc1N(C)S(=O)(=O)c1ccccc1	-17	85	105	i	0.87	-2	-0.9
COc1cc(NC(=S)N2CCN(c3ccccn3)CC2)cc(OC)c1OC	·	·	97	i	1.1	1	·
COc1ccc(C(=O)Cn2nnc(-c3ccccc3-n3cnnn3)n2)cc1	-3	130	112	i	0.85	6	-2.1
COCCNC(=O)/C(C#N)=C/c1cccc(OCc2ccccc2)c1	·	·	103	i	0.98	-5	·
CCC(=O)Nc1cccc(-c2cn3ccccc3n2)c1	·	·	101	i	1.3	1	-0.3
O=C(O)c1cc(-c2ccc(N3CCOCC3)cc2)nn1-c1ccc(F)cc1F	·	·	100	i	1.1	-11	-0.7
COc1ccc2[nH]c(C)cc(=O)c2c1	-50	109	104	i	0.9	11	-0.8
O=C1CC2(CC(c3ccc(Cl)cc3)=NO2)C(=O)N1c1ccccc1 (stereo not given)	·	·	101	i	0.92	·	·
COc1cccc2c(=O)cc(C)n(CC(=O)Nc3ccc(C)c(C)c3)c12	33	159	103	i	1	-6	-2.3
CCOn1c(=O)c(-c2ccc(OC)c(OC)c2)[n+]([O-])c2ccccc21	-37	157	89	i	1.1	1	-1.1
O=C(COC(=O)c1ccccc1Nc1ccc(SC(F)F)cc1)NC1CC1	-30	55	112	i	1.1	-5	-1.3
CC(C)C(=O)Nc1ccc(N2CCN(c3ccc(F)cc3)CC2)cc1	·	·	101	i	0.89	-3	·
NC1=NC(=O)/C(=C/c2ccccc2OS(=O)(=O)c2ccccc2)S1	27	111	127	i	1	0	-1.2
CCOC(=O)c1c(NC(=O)C2CCCN(S(=O)(=O)c3ccccc3)C2)sc2c1CCCC2 (stereo not given)	-12	50	83	i	1	-6	-0.6
COc1ccc(CCNC(=O)CSc2nc(O)c(CC(C)C)c(=O)[nH]2)cc1OC	27	132	93	i	1.1	-7	-1.2
Cc1cc(N2CCC(C)CC2)nc2cccc(O)c12	·	·	100	i	0.82	6	-2.2
O=C(C(=O)N1CCc2ccccc2C1)N1CCc2ccccc2C1	10	68	93	i	1.1	-2	-1.8
COc1ccc(CCNS(=O)(=O)c2cccc(C)c2)cc1OC	-6	86	94	i	0.76	-3	-4.2
S=C(NCc1ccc(Cl)cc1)NCc1ccccn1	-21	128	98	i	0.95	-8	·

Some of the entries above in a different format:
COCCNC(=O)/C(C#N)=C/c1cccc(OCc2ccccc2)c1
- Insulin prom inh = ·
- Insulin prom inh cell count = ·
- RGS16-Gao = 103
- HSV replic up = i
- HSV replic up primary fold = 0.98
- PKD1 inh = -5
- GALR2 ag = ·
O=C(O)c1cc(-c2ccc(N3CCOCC3)cc2)nn1-c1ccc(F)cc1F
- Insulin prom inh = ·
- Insulin prom inh cell count = ·
- RGS16-Gao = 100
- HSV replic up = i
- HSV replic up primary fold = 1.1
- PKD1 inh = -11
- GALR2 ag = -0.7

Not a retest: entries from further up.
SMILES	Insulin prom inh	Insulin prom inh cell count	RGS16-Gao	HSV replic up	HSV replic up primary fold	PKD1 inh	GALR2 ag
CCOC(=O)c1c(NC(=O)C2CCCN(S(=O)(=O)c3ccccc3)C2)sc2c1CCCC2 (stereo not given)	-12	50	83	i	1	-6	-0.6
COc1ccc(CCNC(=O)CSc2nc(O)c(CC(C)C)c(=O)[nH]2)cc1OC	27	132	93	i	1.1	-7	-1.2
Cc1cc(N2CCC(C)CC2)nc2cccc(O)c12	·	·	100	i	0.82	6	-2.2
O=C(C(=O)N1CCc2ccccc2C1)N1CCc2ccccc2C1	10	68	93	i	1.1	-2	-1.8
COc1ccc(CCNS(=O)(=O)c2cccc(C)c2)cc1OC	-6	86	94	i	0.76	-3	-4.2
S=C(NCc1ccc(Cl)cc1)NCc1ccccn1	-21	128	98	i	0.95	-8	·

(more compounds)
SMILES	Insulin prom inh	Insulin prom inh cell count	RGS16-Gao	HSV replic up	HSV replic up primary fold	PKD1 inh	GALR2 ag
Cc1csc(SCC(=O)NC(=O)NC(C)C)n1	27	41	86	i	0.85	-2	·
COc1ccc(/C=C/c2nc(-c3ccccc3)cc(=O)[nH]2)cc1	·	·	117	i	0.97	·	·
CCOc1ccccc1NC(=O)CSC1=C(C#N)C(c2ccco2)C(C(=O)Nc2nc3ccccc3s2)=C(C)N1 (stereo not given)	·	·	109	i	1.1	-1	0.2
Cc1ccccc1NC(=O)CSc1nc2n(n1)CCCCC2	4	118	105	i	0.92	-5	-1.7
COc1ccc(NC(=O)CSC2=NCCN2)cc1	·	·	92	i	0.83	-4	·
COc1cc(SC)ccc1C(=O)NCCOc1ccc(F)cc1	-8	117	100	i	1	3	0.4
COc1ccc(-n2nnc3c(SCC(=O)OCc4ccccc4)ncnc32)cc1	-7	127	92	i	1.1	2	-2.7
CNCCCCOc1ccc(C(C)(C)C)cc1Cl	·	·	99	i	0.76	-3	·
C=CCN(CC=C)C(=O)c1ccccc1NC(=O)c1ccccc1C	11	47	100	i	0.86	-4	-1.7
C/C=C/C(=O)NCCc1ccc(OC)c(OC)c1	·	·	100	i	0.92	0	·
CCn1cc2c(c1-c1cccc(C)c1)c(=O)n(C)c(=O)n2C	19	119	105	i	0.94	-1	-1.1
COC(CNC(=O)c1ccc2c(c1)ncn2-c1cccc(F)c1)OC	-14	91	98	i	0.88	-3	·
COc1cccc(-n2c(SCC(=O)Nc3ccc4c(c3)CCC4)nc3ccccc3c2=O)c1	·	·	92	i	0.96	0	-1.4
CC(C)(CO)NC(=S)NCc1ccco1	·	·	103	i	0.83	·	·
Cc1cccc2cc(C#N)c(SCC(=O)NCC3CCCO3)nc12 (stereo not given)	56	146	90	i	1	-6	-1.3
CCCCn1c(/N=C/c2cc(OC)ccc2O)nc2ccccc21	·	·	101	i	1	15	-1.9
COc1ccc(C(=O)NC2CCN(C(=S)Nc3ccccc3)CC2)cc1	·	·	108	i	0.94	1	·
O=c1[nH]c(/C=C\c2cccs2)nc(O)c1[N+](=O)[O-]	·	·	103	i	0.96	-1	·
Cc1noc(C)c1COC(=O)CNC(=O)c1ccc(Cl)cc1	14	94	61	i	0.97	5	·
COc1ccc(C(=O)CSc2nnc(-c3cc(C)cc(C)c3)o2)cc1	-3	109	104	i	0.79	7	-0.7
CC(=O)Nc1ccc2c(c1)nc(CCNC(=O)c1ccccc1)n2C	30	106	110	i	0.95	4	-2.0
O=C(CSc1nnc(-c2ccccc2O)n1-c1ccccc1)Nc1cccc(C(=O)O)c1	·	·	102	i	1.1	-1	·
CCCC(=O)Nc1c(-c2ccc(OC)cc2)c(=O)c2ccccc2n1C	-29	121	104	i	0.85	1	-2.3
CCOC(=O)c1c(CN2CCCCC2)oc2ccc(O)cc12	-9	122	99	i	0.9	2	-1.4
N#C/C(=C\C1=C(N2CCOCC2)C(=C\c2ccc(Cl)cc2)/CC1)C(=O)Nc1ccccc1F	i	24	52	i	1.2	-3	-0.9
COc1ccc(CC(=O)Nc2ccc3nc(C)sc3c2)cc1OC	·	·	45	i	1	-11	-0.4
c1ccc(Oc2ccc(-c3ccnc4ncnn34)cc2)cc1	-397	78	100	i	0.94	-2	·
Cc1nc(-c2nc(-c3c(C(=O)NNC(=O)c4ccc(Cl)cc4)noc3C)cs2)cs1	·	·	102	i	0.88	·	·
O=C(c1cn2ccccc2n1)N1CCc2c([nH]c3ccccc23)C1c1ccccn1 (stereo not given)	·	·	98	i	0.96	-3	·
CCn1nc(C)c(NC(=O)CCSc2nc(-c3ccco3)cc(C(F)(F)F)n2)c1C	26	70	98	i	0.91	8	-1.3
COc1ccc(OC)c(NC(=O)c2nnn(Cc3ccccc3C)c2N)c1	51	47	104	i	0.48	7	0.0
CC(=O)N(C)c1ccc(OCC(O)Cn2c3ccc(Cl)cc3c3cc(Cl)ccc32)cc1 (stereo not given)	-4	86	106	i	0.97	8	-2.4
NC(=O)NC(Cc1ccccc1)c1ccccc1 (stereo not given)	19	114	104	i	1.1	-14	-1.8
C#CCOCCOCCOCCNc1nc(N2CCN(C(=O)[C@H](C)n3cc(CCCN=C(N)N)nn3)CC2)nc(N2CCN(C(=O)[C@H](CCCCN)n3cc(CCCC)nn3)CC2)n1	57	76	101	·	·	-6	-0.9
Cc1cc(C)cc(N(CC(=O)NC2CCCCC2)C(=O)c2ccc(C)s2)c1	·	·	104	i	0.78	7	-1.6
CCCc1c(C)c2ccc(OCC(C)=O)cc2oc1=O	6	110	89	i	0.93	7	-0.6
CCOC(=O)NCc1ccc(CNC(=O)OCC)cc1	27	114	99	i	0.83	-8	-2.0
CN1CC(c2ccccc2)C(c2ccc(Cl)cc2)=N1 (stereo not given)	-22	95	100	i	0.93	-8	-1.4
CSc1nnc(-c2cccc(NC(=S)NN)c2)o1	-7	123	99	i	0.92	-1	·
COc1ccccc1C(=O)Nc1onc(C)c1C#N	·	·	95	i	0.81	-11	·
CCN1C(=O)N(C(C)=O)C2C1N(C(C)=O)C(=O)N2C(C)=O (stereo not given)	·	·	106	i	0.98	-3	·
COc1cccc(/C=N/n2c(C)nc3ccccc32)c1OC	-27	137	101	i	0.82	-10	-0.8
Cc1ccc(-c2cccc(NC(=O)C3C(C(=O)O)[C@@H]4C=C[C@H]3C4)c2)o1 (stereo not given in full)	-155	77	96	i	1	-13	-1.2
COc1cc(C(=S)N2CCOCC2)ccc1OC(=O)Cc1ccc(F)cc1	31	82	104	·	·	4	-2.0
Cc1ccc(-c2oc3ccccc3c(=O)c2OCC(=O)O)cc1	·	·	103	i	1	-8	·
CCN(CC)C(=O)/C(NC(=O)c1ccccc1)=C(/Sc1ncccn1)c1ccccc1	-37	129	105	i	1.1	-5	-0.7
CCCCN(C(=O)c1cc(=O)[nH]c2ccccc12)c1c(N)n(CCC)c(=O)[nH]c1=O	·	·	88	i	1.1	·	·
CCCCCNC(=O)C(C)Sc1ccc(Cl)cc1 (stereo not given)	-164	92	101	i	0.9	-9	-2.9
Cc1cc(C)n(C(=O)c2ccc(Cl)c(F)c2F)n1	·	·	13	i	1	-7	·
CCSc1nnc(NC(=O)c2csc3c2CCCC3)s1	-118	68	108	i	0.78	-8	-0.4

High-throughput results deposited in PubChem BioAssay by several laboratories.
